# Rango-impB inh = Rango-importin beta binding inhibition; Q14974; Rango CFP/YFP FRET sensor + importin beta, 45 min; Potency, µM (top dose mostly 92.2 µM), without a hit: top-dose inhibition of complex formation; actives 0.031% (n = 340,000); AID 540263; active = rising FRET ratio curve, often small or poorly fitted; inconclusive = mostly compound fluorescence or quenching in the first reads; inactive = flat curves in all reads;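 also: potency is read from the fitted curve at half-maximal effect; 0% = DMSO wells and 100% = buffer wells lacking importin beta; nearly all actives have a fitted effect of over 15% in size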
# Target sequence (Q14974 whole entry, looked up): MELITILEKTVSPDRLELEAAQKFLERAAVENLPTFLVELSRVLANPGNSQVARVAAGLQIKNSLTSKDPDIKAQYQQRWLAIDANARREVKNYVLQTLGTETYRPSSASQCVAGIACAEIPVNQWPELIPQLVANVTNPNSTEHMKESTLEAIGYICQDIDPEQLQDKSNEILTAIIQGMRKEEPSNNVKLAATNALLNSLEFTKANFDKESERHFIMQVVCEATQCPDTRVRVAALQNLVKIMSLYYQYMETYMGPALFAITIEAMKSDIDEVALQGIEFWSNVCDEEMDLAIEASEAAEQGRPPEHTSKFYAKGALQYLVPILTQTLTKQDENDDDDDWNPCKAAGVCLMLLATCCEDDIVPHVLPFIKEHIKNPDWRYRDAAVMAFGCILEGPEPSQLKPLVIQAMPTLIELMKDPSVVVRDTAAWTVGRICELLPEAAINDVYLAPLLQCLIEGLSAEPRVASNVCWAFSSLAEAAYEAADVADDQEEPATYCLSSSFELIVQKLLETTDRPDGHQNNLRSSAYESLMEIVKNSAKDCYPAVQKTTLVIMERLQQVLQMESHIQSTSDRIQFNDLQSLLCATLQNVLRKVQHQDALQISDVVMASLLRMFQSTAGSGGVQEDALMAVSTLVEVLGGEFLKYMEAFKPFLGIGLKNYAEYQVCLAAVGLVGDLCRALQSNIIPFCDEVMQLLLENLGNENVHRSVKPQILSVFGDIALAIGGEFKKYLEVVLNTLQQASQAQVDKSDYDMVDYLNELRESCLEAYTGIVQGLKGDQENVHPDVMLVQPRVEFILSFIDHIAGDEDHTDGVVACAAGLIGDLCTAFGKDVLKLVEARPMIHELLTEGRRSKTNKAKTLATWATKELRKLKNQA
#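 FRET biosensor (snurportin 1 IBB flanked by EYFP and cerulean), 50 nM, with compound 5 min, then 0.125 microM importin beta in PBS, 1 mM DTT, 0.02% Tween-20, 0.1% BSA. CFP/YFP ratio read after 45 min at room temperature; pre-read flags interference.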
# miR-21 FLuc = miR-21 reporter, rising signal; HeLa miR-21 FLuc reporter, luciferase, 48 h; Potency, µM (doses to about 38.3 µM), for the others: at the highest dose reporter change, positive = more light; 340,000 tested, under 10 active; active = well fitted rising curve with a large enough effect; inconclusive = small, poorly fitted or top-dose-only effect; inactive = no such curve, though single readings can be large or run the other way;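 also: % of control where 0% means no effect; miR-21 action dims this reporter so a rising signal means less miR-21 action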
#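 HeLa miR-21-FLuc reporter line, endogenous miR-21; 2000 cells/well in DMEM/10% FBS; compound titration up to ~40uM final, 48 h, 37 degree Celsius; luciferase detection reagent, 15 min lysis, CCD luminescence.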
# Rango dissoc inh = prevents RanGTP from dissociating the Rango-importin beta complex | actives 0.071% (n = 340,000) | O95149+P62826 | Biochemical FRET Rango-importin beta, RanGTP-induced dissociation | Potency, µM (titrated, usually from 46.1 µM), for inactives: at the top dose activity change, negative = inhibition; active means falling FRET ratio curve, often poorly fitted, with flat reads before Ran was added; inconclusive means other falling curves, or compound fluorescence or quenching; inactive means flat or rising ratio curve;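 also: potency is read from the fitted curve at half-maximal effect; % of control where 0% means no effect; nearly all actives have a fitted effect of over 45% in size; -100% = wells without RanGTP and RCC1; the record marks most hits as doubtful in a second field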
#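 Rango FRET biosensor (snurportin-1 IBB flanked by N-terminal EYFP and C-terminal CFP10) at 0.1 uM, with 0.25 uM importin beta in PBS, 1mM DTT, 0.02% Tween-20, 0.1% BSA. 0.6 uM Ran, 2mM GTP and 0.2 uM RCC1 were then added for 45 min at room temperature. Inhibition read as loss of FRET rise.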
# GLA inh pH 4.5 = alpha-galactosidase A (human) inhibition, pH 4.5; purified enzyme, 4-MU-alpha-Gal fluorescence, pH 4.5; activity change, negative = inhibition, % at 105 µM; 230,000 tested, under 10 active; inconclusive = small, poorly fitted or top-dose-only inhibition, or a rising curve; inactive = flat fitted curve, though single readings scatter; no compound was filed as active;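 also: 0% = full activity with enzyme and -100% = basal without enzyme; dose as in the result columns while the protocol names 77 µM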
# An asterisk follows results filed as active; ? = inconclusive; . = no result given; & = joins results of further samples. Not all compounds are listed. The share of hits here may be higher or lower than overall.
1) CCc1cc(C(=O)NNC(=O)c2csc(N3CCOCC3)n2)sc1C
2) CC(C)N(Cc1nc(-c2ccccc2)no1)C(=O)CSc1ccccc1
3) Cc1cc(C)n(-c2c(F)c(F)c(CO)c(F)c2F)n1
4) CC12CCC(C/C1=N/NC(=O)COc1ccccc1Cl)C2(C)C (configuration not stated)
5) CC(C)N(Cc1nc(-c2ccc3c(c2)OCO3)no1)Cc1nccn1C
6) CCOc1c(O)ccc(C2NC(=O)N(C)C(C)=C2C(=O)OC)c1[N+](=O)[O-] (configuration not stated)

entry no.,1,2,3,4,5,6
miR-21 FLuc,.,-13%,-5%,-6%,-14%,-1%
GLA inh pH 4.5,.,-1,7,-2,-16,2
Rango-impB inh,3.2%,-0.2%,2.4%,3.9%,1.6%,-0.3%
Rango dissoc inh,-6%,-6%,-4%,-18%,-5%,-3%

7) COc1ccccc1N1C(=O)C2C(C(=O)c3ccccc3)=NN(c3ccccc3)C2C1=O (configuration not stated)
8) CCOC(=O)Nc1n[nH]c(NC(=O)OCC)c1[N+](=O)[O-]
9) COC(=O)c1cnn(-c2cc(Oc3ccccc3)ncn2)c1N
10) Cc1[nH]c2ccccc2c1C(=O)COC(=O)c1c(-c2c(F)cccc2Cl)noc1C
11) COc1cccc(-n2nc(-c3ccnn3-c3ccc(C)cc3)c(=O)n(C)c2=O)c1
12) O=C1NC[C@H](Cc2ccccc2)N(C[C@H]2CCCN2C[C@H](Cc2ccccc2)N2C[C@H](Cc3ccc(O)cc3)N(CCc3ccccc3)C(=O)C2=O)C1=O

entry no.,7,8,9,10,11,12
miR-21 FLuc,-6%,4%,-26%,3%,1%,.
GLA inh pH 4.5,-6,0,9,-10,1,.
Rango-impB inh,?,5.2%,-1.1%,1.5%,8.0%,-1.5%
Rango dissoc inh,?,4%,-8%,-1%,10%,9%

13) COc1ccc(OCCC(=O)Nc2cc(C)on2)cc1
14) Cc1ccc(CCNS(=O)(=O)c2c(C)nc3sccn3c2=O)cc1
15) CCC(C(=O)NCc1ccco1)N(C(=O)CNS(=O)(=O)c1ccccc1)c1ccc(F)cc1 (configuration not stated)
16) CC(=O)N(c1cc(C)ccc1C)c1ccccc1[N+](=O)[O-]
17) CCCOc1ccc(/C(O)=C2/C(=O)C(=O)N(CCN(C)C)C2c2ccncc2)cc1 (configuration not stated)
18) CC(C)[C@H](NC(=O)c1ccccc1)C(=O)OCC(=O)NCCC1=CCCCC1

entry no.,13,14,15,16,17,18
miR-21 FLuc,-1%,-2%,0%,.,.,0%
GLA inh pH 4.5,-5,.,.,.,.,?
Rango-impB inh,2.8%,0.4%,-2.4%,1.8%,-1.1%,-2.3%
Rango dissoc inh,1%,-12%,-2%,3%,0%,12%

19) COc1ccc(-c2coc3c(CN4CCCCC4)c(O)c(CN4CCCCC4)c(O)c3c2=O)cc1
20) COc1ccc(C(=O)NCCNC(=O)c2ccc(C)nc2)cc1
21) O=S(=O)(c1cccc(-c2cn3cccnc3n2)c1)N1CCCCCC1
22) COC(=O)c1ccc(CSc2nc3c(cnn3-c3ccc(C)c(C)c3)c(=O)[nH]2)o1
23) C=CCn1c(C)nnc1SCC(=O)Nc1ccc2c(c1)OCCO2
24) Cc1ccc(C(=O)NS(=O)(=O)c2ccc(C)cc2)cc1

entry no.,19,20,21,22,23,24
miR-21 FLuc,-8%,2%,-2%,-8%,.,-1%
GLA inh pH 4.5,-7,.,13,-9,.,1
Rango-impB inh,.,0.9%,-2.6%,3.2%,?,1.4%
Rango dissoc inh,.,13%,0%,-8%,4%,8%

25) COC(=O)c1[nH]c2c(c1C)C(=O)CC(c1cccc(OC)c1)C2 (configuration not stated)
26) CCCCNC(=O)c1onc(CSc2ccccn2)c1C(=O)NCCCC
27) Cc1ccccc1Nc1nc(CSc2nnc(-c3ccoc3C)n2C)cs1
28) CCOC(=O)N1CCC(NC(=O)c2cc(COc3c(C)cccc3C)on2)CC1
29) CCN1CCN(CC(=O)c2ccc(OC)cc2)CC1
30) COc1ccccc1Oc1c(C)oc2c(CN3CCN(C)CC3)c(O)ccc2c1=O

entry no.,25,26,27,28,29,30
miR-21 FLuc,22%,.,-16%,10%,-5%,-5%
GLA inh pH 4.5,.,.,0,.,0,-1
Rango-impB inh,-1.9%,-1.1%,-1.3%,4.4%,-2.8%,.
Rango dissoc inh,-16%,20%,-11%,13%,8%,.

31) COc1ccc(N(CC(=O)NCCc2ccc(C)cc2)S(=O)(=O)c2c(C)noc2C)cc1
32) CCN(CC)C(=O)COc1ccc2c3c(c(=O)oc2c1)CCCC3
33) COc1ccc2nc(NC(=O)CCNC(=O)c3ccccc3Cl)sc2c1
34) C#CCOCCOCCOCCNc1nc(N2CCN(C(=O)C([C@@H](C)CC)n3cc(C(N)COC(=O)C(F)(F)F)nn3)CC2)nc(N2CCN(C(=O)C([C@@H](C)CC)n3cc(C(N)CC(C)C)nn3)CC2)n1 (some centres not stated)
35) CCc1ccc(/C=N/NC(=O)c2nnn(-c3nonc3N)c2CN2CCOCC2)cc1
36) C[C@@H]1NC(=O)c2cc([N+](=O)[O-])cc(I)c2NCC[C@@H](C(N)=O)NC(=O)[C@H](CC(N)=O)NC1=O

entry no.,31,32,33,34,35,36
miR-21 FLuc,0%,-26%,-36%,.,-7%,-5%
GLA inh pH 4.5,.,.,0,.,.,-13
Rango-impB inh,-0.8%,4.1%,6.1%,-0.8%,0.6%,0.4%
Rango dissoc inh,8%,-2%,?,-11%,-8%,-29%

37) COc1cccc(CNS(=O)(=O)c2cc(Br)cc3c2N(C(C)=O)C(C)C3)c1 (configuration not stated)
38) COc1ccccc1NCCC(=O)OCC(=O)NC1CC1
39) C#CCOCCOCCOCCNc1nc(N2CCN(C(=O)C([C@@H](C)O)n3cc([C@@H](N)CCCCN)nn3)CC2)nc(N2CCN(C(=O)[C@H](CCCN=C(N)N)n3cc(C(N)[C@@H](C)CC)nn3)CC2)n1 (some centres not stated)
40) COc1cc(/C=C/C(=O)Nc2ccc(C)cc2)cc(OC)c1OC
41) CC(C)NC(=O)COc1ccc(S(=O)(=O)N2CCCC2)cc1
42) CC(C)NC(=O)CN1CCN(Cc2nc(-c3cccs3)no2)CC1

entry no.,37,38,39,40,41,42
miR-21 FLuc,9%&1%,2%,.,20%,1%,0%
GLA inh pH 4.5,2,-1,.,0,.,5
Rango-impB inh,-5.7%,-1.6%,52µM*,0.1%,-3.4%,-1.4%
Rango dissoc inh,-1%,1%,-10%,22%,-16%,0%

43) c1ccc2c(-c3c[nH]c4ccccc34)c3ccccc3nc2c1
44) Cc1ccc(S(=O)(=O)[N-]c2nc3ccccc3nc2-[n+]2cc(C)cc(C)c2)cc1
45) CCc1cc(-c2n[nH]c(C)c2-c2nc3ccccc3n2C)c(O)c(CN2CCN(C)CC2)c1O
46) Cc1ccc2c(c1)c1c(n2CC(O)CN2CCC(C)CC2)CCCC1 (configuration not stated)
47) O=C(N[C@@H](Cc1ccccc1)C(=O)OCc1ccccc1)c1nc[nH]c1C(=O)N1CCc2ccccc2C1
48) O=S(=O)(c1cc(Cl)c(Cl)cc1Cl)N1CCN2CCCC2C1 (configuration not stated)

entry no.,43,44,45,46,47,48
miR-21 FLuc,28%,3%,0%,-10%,5%,5%
GLA inh pH 4.5,-10,-2,2,-21,-19,.
Rango-impB inh,?,?,4.2%,3.6%,-0.4%,-0.2%
Rango dissoc inh,?,?,1%,-2%,23%,1%

49) CC(C)(C)C(=O)Nc1cccc(-c2ccc[nH]2)n1
50) Cc1ccc(NC(=O)CCCCCN2C(=O)[C@@H]3Cc4ccccc4CN3C2=O)c(C)c1
51) CCC(=O)Nc1ccc2c(c1)nc(CCN1CCN(C)CC1)n2C
52) COc1ccc(S(=O)(=O)N2CCN(C)CC2)cc1NC(=O)c1ccccc1C
53) COc1ccccc1CN1CCN(Cc2nc(-c3ccccc3)no2)CC1
54) COc1ccc(C(=O)NCCS(=O)(=O)N(C)Cc2ccccc2)cc1

entry no.,49,50,51,52,53,54
miR-21 FLuc,.,1%,1%,10%,-33%,.
GLA inh pH 4.5,.,.,2,.,-6,.
Rango-impB inh,-2.4%,0.2%,-3.4%,-2.6%,-1.9%,2.0%
Rango dissoc inh,-8%,4%,7%,12%,-1%,-22%

# Sorted by molar mass (highest first): ten of the compounds above
45) CCc1cc(-c2n[nH]c(C)c2-c2nc3ccccc3n2C)c(O)c(CN2CCN(C)CC2)c1O
50) Cc1ccc(NC(=O)CCCCCN2C(=O)[C@@H]3Cc4ccccc4CN3C2=O)c(C)c1
52) COc1ccc(S(=O)(=O)N2CCN(C)CC2)cc1NC(=O)c1ccccc1C
48) O=S(=O)(c1cc(Cl)c(Cl)cc1Cl)N1CCN2CCCC2C1 (configuration not stated)
54) COc1ccc(C(=O)NCCS(=O)(=O)N(C)Cc2ccccc2)cc1
42) CC(C)NC(=O)CN1CCN(Cc2nc(-c3cccs3)no2)CC1
46) Cc1ccc2c(c1)c1c(n2CC(O)CN2CCC(C)CC2)CCCC1 (configuration not stated)
51) CCC(=O)Nc1ccc2c(c1)nc(CCN1CCN(C)CC1)n2C

entry no.,45,50,52,48,54,42,46,51
miR-21 FLuc,0%,1%,10%,5%,.,0%,-10%,1%
GLA inh pH 4.5,2,.,.,.,.,5,-21,2
Rango-impB inh,4.2%,0.2%,-2.6%,-0.2%,2.0%,-1.4%,3.6%,-3.4%
Rango dissoc inh,1%,4%,12%,1%,-22%,0%,-2%,7%

43) c1ccc2c(-c3c[nH]c4ccccc34)c3ccccc3nc2c1
49) CC(C)(C)C(=O)Nc1cccc(-c2ccc[nH]2)n1

entry no.,43,49
miR-21 FLuc,28%,.
GLA inh pH 4.5,-10,.
Rango-impB inh,?,-2.4%
Rango dissoc inh,?,-8%

# Continued:
55) Cc1ccc(S(=O)(=O)N(CC(=O)Nc2ccc(Cl)cc2)C(=O)N2CCN(C)CC2)cc1
56) CS(=O)(=O)N(CC(=O)N1CCOCC1)c1cc(C(F)(F)F)ccc1Cl
57) N#Cc1ccccc1OCc1nnc(-c2ccccc2Br)o1
58) CCn1c(=O)n(CC(=O)NC2CCCC(C)C2C)c(=O)c2ccccc21 (configuration not stated)
59) CC(C)n1cc2c(N)ncnc2n1
60) COc1ccc(-c2cc(C(=O)Nc3cc(Cl)ccc3O)no2)cc1

entry no.,55,56,57,58,59,60
miR-21 FLuc,.,-5%,-60%,-1%,.,-44%
GLA inh pH 4.5,.,.,.,4,.,.
Rango-impB inh,-2.2%,0.2%,3.4%,2.2%,3.6%,0.0%
Rango dissoc inh,2%,-8%,-5%,5%,1%,3%

61) COc1ccccc1CN1CC(C(=O)NCc2ccc(SC)cc2)CCC1=O (configuration not stated)
62) Cc1ccc(S(=O)(=O)Nc2nc3ccccc3nc2NCC2CCCO2)cc1C (configuration not stated)
63) CN(CC(=O)Nc1ccccc1C(F)(F)F)C(=O)CSc1nnnn1C
64) O=C(COC(=O)c1cccc(NS(=O)(=O)c2ccc(F)c(F)c2)c1)NC(=O)NC1CCCCC1
65) CCN(CC)c1ccc(/C=C2\NC(=O)NC2=O)cc1
66) COc1ccccc1CCC(=O)N(CCC1=CCCCC1)c1c(N)n(Cc2ccccc2)c(=O)[nH]c1=O
67) COc1ccccc1N1CCN(CCN2C(=O)C3CCCN3C2=O)CC1 (configuration not stated)
68) COCCN(C(=O)c1ccco1)c1nnc(-c2ccc(F)cc2)s1

entry no.,61,62,63,64,65,66,67,68
miR-21 FLuc,1%,-3%,0%,-5%,-22%,.,-1%,-48%
GLA inh pH 4.5,.,-3,5,-2,-10,.,.,2
Rango-impB inh,-1.6%,?,?,0.4%,?,1.8%,0.2%,-1.8%
Rango dissoc inh,-4%,35%,29%,-7%,?,-8%,-9%,-11%

# Source: PubChem BioAssay (National Center for Advancing Translational Sciences (NCATS))
